Autofluor counter: counter-screen for toxin protease inhibitors: compound fluorescence | compound autofluorescence counterscreen, microsphere flow cytometry; stronger effect = higher value | fluorescence intensity (test concentration not listed) | 360,000 compounds, 3.1% hits | AID 624483;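 active = at least 3 SD above the mean of all compounds, about 16000 in these data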;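 note: 100 nL of 1 mM stock went into each well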
Sa RN4220 lethal: kills Staphylococcus aureus RN4220 | S. aureus RN4220 growth, OD600, 16 h | inhibition, % (no concentration beside the values) | 330,000 compounds, 0.33% hits;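 active = z-score of -3 or lower and OD600 up to 0.18 on both plates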;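 note: plate controls were untreated cells for no effect and reference antibiotic for full effect; stock transfer was 100 nL into about 80 µL; one replicate is shown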
PrP 5UTR inh: suppresses PrP 5' UTR mRNA reporter expression. 340,000 compounds, 0.35% hits. inhibition, % (test concentration not listed). AID 488862. cell-based PrP 5' UTR mRNA reporter, plate reader;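 active = every replicate at 50% or more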;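 note: 0 = median of the neutral control wells; tested in H4 reporter cells; numbers are from one replicate; inactives centre near -14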
BJeLR viability: kills HRASV12-expressing BJeLR cells. BJeLR (HRASV12) viability, CellTiter-Glo ATP luminescence, 48 h; reference of the scale not given here. inhibition, % (concentration not given with the values). 300,000 compounds, 0.17% hits;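 active = replicate mean above 50%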;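 note: 50 nL library stock added to about 25 µL; numbers are from one replicate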
Sa ugtP lethal: growth inhibition of S. aureus ugtP deletion strain; AID 1259309; S. aureus RN4220 ugtP deletion, OD600 growth, 16 h; some inactives read as strong as hits; growth inhibition, % (concentration not given with the values); 330,000 compounds, 0.54% hits;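 active = z-score under -3 and OD600 up to 0.15 on both plates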;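 note: plate controls were untreated wells for no effect and antibiotic for full effect; wells of about 80 µL received 100 nL stock; the first replicate is given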
Mtb hypoxia inh: Mtb hypoxia fluorescent reporter inhibition; M. tuberculosis hypoxia-regulated fluorescent reporter, fluorescence; fluorescence inhibition, % (concentration not given with the values); 300,000 compounds, 0.1% hits; AID 1159583;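 active = 35 to 45% if threefold the growth effect, above 45% if 1.5-fold the growth effect; inactive = the rest, general growth blockers included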;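 note: wells of about 50 µL received 100 nL stock; 0% = vehicle wells and 100% = reference inhibitor wells; whole bacteria with a GFP reporter of the hypoxia response; strong numbers were not always called active; many hits fall short of the cut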
Mtb hypoxia inh growth: recorded beside Mtb hypoxia inh, whose call it bears; growth inhibition, %; measured here: M. tuberculosis growth (absorbance);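 0% = vehicle and 100% = reference antibiotic; read after six days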
Starred values were filed as active, the others as inactive; · = not tested or not shown.

Value order: Autofluor counter	Sa RN4220 lethal	PrP 5UTR inh	BJeLR viability	Sa ugtP lethal	Mtb hypoxia inh	Mtb hypoxia inh growth
- CC1=C(C(=O)Nc2cccc(C(=O)NC(C)c3ccccc3)c2)SCCO1 (stereo not drawn)
 : 5964	5.3	-7	12	1	9	12
- CN(C)c1nc(N)nc(CSc2nc3c(c(=O)n(C)c(=O)n3C)n2Cc2ccccc2F)n1
 : 3897	-2.9	-28	-10	-66	15	-1
- CC/C(=N/N=C(\CC)c1ccccc1)c1ccccc1
 : 2524	·	-12	-2	·	·	·
- COC(=O)C1CCN(C(=O)COC(=O)c2n[nH]c3ccccc23)CC1
 : 8933	3.6	-25	1	-3	3	6
- CO[C@H]1CC[C@@]2(C)[C@@H](CC[C@@H]3[C@@H]2CC[C@@]2(C)[C@H]3C[C@H](C(=O)O)O[C@]23CCCO3)C1
 : 2965	9.2	-10	·	20	9	0
- COc1cccc(N2CCN(C(=O)C3CCN(S(=O)(=O)c4cccs4)CC3)CC2)c1
 : 3435	4.9	-32	5	3	1	3
- O=C(Nc1ccccc1-c1ccccc1)c1ccccc1
 : 3597	2.6	-5	-5	4	3	3
- O=C(CN1CCCCC1)NC(=O)Nc1ccccc1F
 : 6043	0.2	-24	·	2	4	-9
- CCOCCCNC(=O)C(NC(=O)c1ccc2c(c1)OCO2)c1ccc(Cl)cc1 (stereo not drawn)
 : 4492	8.6	-28	-2	3	-2	12
- C=CCN(c1ccc(C(=O)NCCN2CCOCC2)cc1)S(C)(=O)=O
 : 3820	3.9	-19	-15	7	1	10
- CN(CC(=O)Nc1cccc(F)c1)C(=O)c1cc(S(=O)(=O)N2CCN(c3ccccc3)CC2)ccc1Cl
 : 6298	4.1	-3	·	-3	-5	-8
- Fc1ccc(-c2csc(C=Cc3ccc4c(c3)OCO4)n2)cc1
 : ·	7.4	·	·	-2	2	13
- O=C(O)c1cc2ccccc2n1-c1ccccc1
 : 3745	1.8	-11	-6	2	·	·
- COc1ccccc1CCN=C(N)NS(=O)(=O)c1ccc(F)cc1
 : 4758	4.1	-19	-17	1	5	-1
- CC(C)[C@H](NS(=O)(=O)c1ccccc1)C(=O)Nc1ccccc1N1CCOCC1
 : 5555	3.5	-28	·	5	4	3
- COCCNCC(=O)Nc1ccc(C)c(S(=O)(=O)N2CCCCC2)c1
 : 4110	2.7	-2	4	-2	-5	5
- CCOc1ccc(/C=C/[N+](=O)[O-])c2ccccc12
 : 6477	96*	-14	19	95*	19	9
- FC(F)(F)c1cc(-c2ccccc2)nc(-n2cncn2)n1
 : 9719	2.1	·	1	-1	5	11
- Cc1ccccc1N(CC(=O)NCc1ccncc1)S(C)(=O)=O
 : 10054	2.9	-22	4	12	4	-5
- CC1CN(C(C)CO)C(=O)c2cccc(NS(=O)(=O)c3ccc(F)cc3)c2OC1CN(C)Cc1ccc(-c2ccccc2)cc1 (stereo not drawn)
 : ·	4.9	·	·	8	13	6
- COCC1CCN(Cc2c(C(=O)N3CCc4ccccc4C3)nc3ccc(Cl)cn23)C1 (stereo not drawn)
 : 5592	2.2	-4	-1	2	-1	0
- C=CCn1c(SCC(=O)NCc2ccco2)nc2ccccc2c1=O
 : 3795	-3.8	-18	-2	-1	-6	5
- Nc1nnnn1NCc1cccc(OCc2ccccc2)c1
 : 4686	3.8	-8	-10	-2	·	·
- CCN(CC)CCOCCOc1ccccc1F
 : 5887	2.2	-12	2	0	3	8
- COc1cc2c(cc1OC)C(C)N(C(=O)C(NC(=O)c1ccccc1)C(C)C)CC2 (stereo not drawn)
 : 3022	-0.5	3	-8	0	9	-1
- Cc1cc(NC(=O)CC2CCCC2)ccc1Br
 : 5458	-7.9	-48	2	-9	4	1
- CC(C)(C)c1ccc(NC(=O)CSc2n[nH]c(=O)n2C2CC2)cc1
 : 3961	8.1	-19	·	6	-2	6
- O=C(COC(=O)CCC(=O)c1ccc2c(c1)OCCO2)NCc1ccc2c(c1)OCO2
 : 4049	0.9	-24	1	-9	-1	-1
- Cc1ccc2sc(N(CCN(C)C)C(=O)c3ccc4ccccc4c3)nc2c1C
 : 4483	-8.5	-13	-4	-35	-9	0
- COc1cc(-n2c(=O)c3ccccc3n(CC(=O)OCc3ccccc3)c2=O)cc(OC)c1OC
 : 5018	3.3	-5	-1	4	0	2
- COc1ccc(N(C(=O)c2snc(C(N)=O)c2N)C(C(=O)NC2CCCC2)c2ccco2)c(OC)c1 (stereo not drawn)
 : 4262	2.3	-14	0	1	-4	10
- COc1ccc(-c2cc(C(=O)Nc3c(F)cc(F)cc3Br)no2)cc1
 : 3840	7.0	-38	6	15	18	2
- CCOC(=O)C(=N/O)/C(C)=N/NC(C)=O
 : 4605	·	-3	-5	·	·	·
- CC(C)Oc1ccc(S(=O)(=O)N2CCOCC2)cc1NC(=O)CCCSc1ccccc1
 : 6045	0.3	3	·	2	5	-5
- COc1ccc(C2c3c4c(n(C)c3CCN2C)CCN(C)C4c2ccc(OC)cc2)cc1 (stereo not drawn)
 : 16735*	4.1	-2	2	8	2	-4
- CCOC(=O)N1CCC(NC(=O)C2CCCN(S(=O)(=O)c3ccc4c(c3)oc(=O)n4C)C2)CC1 (stereo not drawn)
 : 9985	2.3	-9	0	3	0	5
- CCCC(=O)NCCc1ccc(S(N)(=O)=O)cc1
 : 14936	1.2	-7	3	6	4	-11
- Nc1ccc2c(c1)nc(Cc1ccccc1)n2CCO
 : 2335	1.9	-20	5	-4	8	6
- CN(c1ccccc1)c1nccc(=O)[nH]1
 : 3717	2.5	-30	-12	7	-6	-1
- CC(C)(C)OC(=O)N1CCC(Cc2cc(-c3ccc(Cl)cc3)no2)(C(=O)O)CC1
 : 3453	6.6	0	-6	-3	7	-2
- CC1=NN(C(=O)c2ccccc2-n2cccc2)C(O)(C(F)(F)F)C1 (stereo not drawn)
 : 2441	6.6	-22	-1	3	8	10
- Cc1ccc(NC(=O)CCC(=O)NNS(=O)(=O)c2ccccc2)c(C)c1
 : 2119	0.3	-5	2	3	·	·
- CC1CCCCN1C(=O)C1CCN(S(=O)(=O)c2ccc(-n3cnnn3)cc2)CC1 (stereo not drawn)
 : 6231	2.1	-3	-4	4	19	8
- C/C(=N\NC(=O)c1cc(-c2cccnc2)nc2ccccc12)c1ccccc1O
 : 10213	·	-16	21	·	·	·
- COc1ccc(CNCc2ccccc2C(F)(F)F)cc1
 : 2896	3.4	-2	-2	2	16	5
- CCc1ccccc1N1C(=O)/C(=C/c2ccc(N3CCN(C)CC3)o2)C(=O)NC1=S
 : 2755	0.5	-18	-15	4	1	-11
- O=C(CN(C(=O)c1cc2c(s1)CCC2)C1CCCC1)NCc1cccs1
 : 9519	-0.8	-34	2	12	-2	5
- C#CCOCCOCCOCCNc1nc(N2CCN(C(=O)[C@H](CCC(=O)O)n3cc(C(N)CO)nn3)CC2)nc(N2CCN(C(=O)[C@H](CCC(=O)O)n3cc(C(N)[C@H](C)CC)nn3)CC2)n1 (stereo partly drawn)
 : 3368	·	-8	7	·	·	·
- Cc1ccc2c(NC(=O)C3CC3)c(C)ccc2n1
 : ·	0.6	·	4	1	·	·
- CCOCN(C(=O)Cn1c(COC)nc2ccccc21)c1c(C)cccc1CC
 : 3707	1.4	-17	-2	3	17	8
- O=C(NCc1ccco1)c1ccc(N2CCOCC2)c([N+](=O)[O-])c1
 : 2209	0.9	-9	3	13	-3	2
- CC1=C/C(=N\OC(=O)/C=C/c2ccccc2)C(C)=CC1=O
 : 14608	·	-12	5	·	·	·
- Cc1cc(NS(=O)(=O)c2ccc(OCCNS(C)(=O)=O)cc2)no1
 : 4945	2.1	6	-2	9	12	6
- CCOC1OC(C(=O)NC2CC2)=CC(C(C)(C)C)C1CCCO (stereo not drawn)
 : ·	2.9	·	·	0	18	13
- COC(=O)c1ccc(COc2cccc3c2CCN(Cc2ccccc2)C3=O)o1
 : 2528	2.9	-5	1	-6	-1	-1
- CC(C)Cn1c(N)c(C(=O)NCc2cccs2)c2nc3ccccc3nc21
 : 8336	·	-8	-3	·	·	·
- CC1CCC(C(C)C)C(OP(=O)(c2ccc(N(C)C)cc2)C(O)c2cccnc2)C1 (stereo not drawn)
 : ·	4.4	·	4	-5	15	4
- CCOC(=O)N1CCN(Cc2cn[nH]c2-c2cccc3ccccc23)CC1
 : 3809	5.3	-9	-7	12	-4	3
- O=C(NC(Cc1c[nH]c2ccccc12)C(=O)NN=Cc1cccc2ccccc12)c1cccs1 (stereo not drawn)
 : ·	7.7	·	·	-12	10	12
- O=C(NC1CCCCCC1)c1cc(S(=O)(=O)N2CCOCC2)ccc1N1CCCCC1
 : 6178	-6.0	-5	-3	-16	-18	-2

Next records:
Value order: Autofluor counter	Sa RN4220 lethal	PrP 5UTR inh	BJeLR viability	Sa ugtP lethal	Mtb hypoxia inh	Mtb hypoxia inh growth
- Cc1nn(CCOc2ccccc2)c(=O)n1-c1ccccc1
 : 22975*	7.2	-38	1	2	-5	-7
- O=C(CN(c1ccc(F)cc1)S(=O)(=O)c1ccccc1)NCCSC1CCCCC1
 : 7846	0.5	-21	-4	-14	-2	0
- CC(=O)N1CCN(C(=S)Nc2ccc(Oc3ccccc3)cc2)CC1
 : 2009	3.0	-11	-1	1	12	-4
- CC(C)(C)c1cc(NC(=O)COC(=O)c2ccc3c(=O)n4c(nc3c2)CCC4)n(-c2ccccc2)n1
 : 2297	-1.4	-2	1	-1	·	·
- CC(=O)Nc1cccc(Oc2ccc3c(c2)C(=O)NC3=O)c1
 : 3304	7.9	-19	-5	6	13	8
- O=C(COC(=O)c1cc(S(=O)(=O)N2CCOCC2)ccc1Cl)Nc1ccccc1Cl
 : 5318	3.9	-9	·	0	0	0
- N#CC1(C#N)C(c2ccccc2)OC23CCCCCC2C1(C#N)C(=N)O3 (stereo not drawn)
 : 6723	7.8	-10	-9	-5	-8	-1
- CN(C)N=Nc1ccc2nc[nH]c2c1
 : 5732	5.7	-12	-5	6	4	10
- CC1=C(C(=O)N2CCCC(N3CCN(c4cccc(C(F)(F)F)c4)CC3)C2)OCCO1 (stereo not drawn)
 : 5882	1.5	-6	-8	1	12	-9
- CCCN(CC(=O)Nc1ccccc1OC)C(=O)c1cccc(S(=O)(=O)NCc2ccccc2)c1
 : 6532	6.0	-14	-12	-2	7	3
- Cc1ccc(NC(=O)NCCc2ccc(S(N)(=O)=O)cc2)cc1
 : 3898	-1.1	-9	8	1	·	·
- N/C(=N\OC(=O)CSc1ccccc1)c1ccccn1
 : 4952	3.0	-11	1	11	6	-6
- COC(=O)C1=C(c2ccc(Cl)c(C(F)(F)F)c2)CC2CCC1N2C(=O)NCC1CC1 (stereo not drawn)
 : ·	1.0	·	·	-7	7	6
- CC(C)Cn1c(SCC(=O)N2CC(=O)Nc3ccccc32)nc2ccccc21
 : 2399	1.3	-9	1	-2	8	13
- C[C@]12CCC(=O)C[C@@H]1CC[C@@H]1[C@@H]2CC[C@]2(C)[C@@H](O)CC[C@@H]12
 : 6325	2.8	-12	·	11	·	·
- Cc1cc(C)cc(NC(=O)c2cc3c(=O)n4ccccc4nc3s2)c1
 : 2931	·	-31	-7	·	·	·
- c1ccc2c(c1)ncn2CCN1CCCCC1
 : 3587	2.2	-14	4	5	·	·
- CCOC(=O)CC1C(=O)NCCN1C(=O)c1cccc(OC)c1 (stereo not drawn)
 : 4063	1.7	-7	5	5	16	-5
- COc1ccc(S(=O)(=O)N(CCc2ccccc2)CC(=O)O)cc1C
 : 11778	3.6	-9	-8	14	5	4
- O=C(O)CCC(=O)CCC(=O)c1ccc(Cl)cc1
 : 7133	7.4	-17	-7	5	1	4
- COc1ccccc1CNC(=O)CS(=O)(=O)Cc1ccccc1
 : 6061	6.9	-3	-3	2	-3	0
- O=C(Nc1ccccc1-c1nnn(CC(=O)N2CCOCC2)n1)c1ccccc1F
 : 2408	0.9	-10	-3	1	11	0
- Cc1ccc(S(=O)(=O)Nc2ccc(-c3nnc(SCc4ccccc4Cl)o3)cc2)cc1
 : 2454	17	-16	0	-16	7	-1
- CC(=O)c1c(C)[nH]c(C(=O)Nc2cccc(S(=O)(=O)N(C)C)c2)c1C
 : 5395	4.8	-30	-3	-3	4	12

An excerpt from above with just Mtb hypoxia inh growth and PrP 5UTR inh:
molecule | Mtb hypoxia inh growth | PrP 5UTR inh
CCc1ccccc1N1C(=O)/C(=C/c2ccc(N3CCN(C)CC3)o2)C(=O)NC1=S | -11 | -18
CCOC(=O)C(=N/O)/C(C)=N/NC(C)=O | · | -3

High-throughput results as filed in PubChem.
